Assay outcomes: PubChem BioAssay, ICCB-Longwood Screening Facility, Harvard Medical School
BmaI1 – BmaI1 acyl-homoserine lactone synthase inhibition – biochemical, fluorescence intensity, with counterscreen (AID 720554); BmaI1 enzyme assay, fluorescence intensity; hits give high values; test concentration not given here; a few actives read low; strong numbers were not always called active; inhibition, %; 12,000 tested, 0.4% active;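 active = both replicates within 2 robust z-scores of the inhibited control and a quiet counterscreen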;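 also: 0% = uninhibited enzyme and 100% = inhibited control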
BmaI1 counterscreen – also measured in BmaI1; calls as there; inhibition, %; measured here: counterscreen; design of the counterscreen not given here;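 first of two replicates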
Numbers without * were called inactive.

SMILES | BmaI1 | BmaI1 counterscreen
CC(Oc1cc(OC(C)C(=O)O)c2c(c1)oc(=O)c1ccccc12)C(=O)O (centres undefined) | 0 | 0
CCCn1nc(C(=O)NC2CCC(C)CC2)ccc1=O (centres undefined) | 22 | 4
CNC(=O)Cn1nc(C)c(S(=O)(=O)N2CCOCC2)c1C | 15 | 12
CC(Sc1nnnn1-c1ccc(O)cc1)C(=O)c1ccccc1 (centres undefined) | 8 | 2
Cc1nn(Cc2ccccc2Cl)c2sc(C(=O)NC(C)(C)C)cc12 | 19 | 10
Cc1ccc2nc(CSc3nnc(-c4ccccc4)o3)cc(=O)n2c1 | 16 | 8
Cc1cc(F)ccc1NCC(=O)Nc1ccc2c(c1)OCCO2 | 14 | 2
COc1ccccc1Nc1nn(CN2CCCCC2C)c(=S)s1 (centres undefined) | 108 | 84
CCCNc1ccccc1N | 78 | 63
Oc1ccc(/C=N/N2CCOCC2)cc1 | 54 | 34
COc1ccc(OC)c(NC(=O)C2CC(=O)N(CCc3ccccc3)C2)c1 (centres undefined) | 2 | -1
O=C(NCc1ccccc1F)c1cccc(N2C(=O)CCC2=O)c1 | -10 | -4
CCC1CCc2sc(-c3n[nH]c(=S)n3C)cc2C1 (centres undefined) | 16 | 10
O=C(CCC(=O)c1ccc2c(c1)OCCCO2)OCc1nc2ccccc2o1 | 14 | 14
C/C(N)=C(/C#N)C(=O)CSc1cccc(C(F)(F)F)c1 | 20 | 18
CCc1noc(C)c1C(=O)N1CCc2ccccc21 | 12 | 2
O=C(COc1ccccc1)N1CCN(c2ncccn2)CC1 | 9 | -6
O=C(Cn1[nH]c(=O)c2ccccc2c1=O)N1CCSC1=NCc1ccccc1 | 8 | 2
O=C(NN=C1CCCCC1)NC1CCCCC1 | 28 | 26
Cc1ccc(S(=O)(=O)N(CCC(N)=O)c2ccccc2)cc1 | 11 | 0
CCOC(=O)c1c(N)n(CCO)c2nc3ccccc3nc12 | 4 | 8
Cc1cc(=O)n(Cc2ccc(Cl)cc2)c(SCC(N)=O)c1C#N | 0 | -3
CCOC(=O)c1cc(-c2ccco2)nn1-c1ccc(C)cc1C | 36 | 5
CCC(C)(C)NC(=O)Cn1c(C)csc1=O | 18 | 14
Cc1ccc(NC(=O)COC(=O)C2=NC=CN3CCS(=O)(=O)N=C23)cc1 | 38 | -2

Continued.
SMILES | BmaI1 | BmaI1 counterscreen
Cc1ccc(-c2cc(C)n3nc(N4CCOCC4)c(C#N)c3n2)cc1 | 20 | 14
O=C(Cc1ccccc1F)Nc1ccnn1Cc1ccccc1 | 16 | 12
O=C(CN1C(=O)C2CC=CCC2C1=O)OCc1nnc(-c2ccccc2Br)o1 (centres undefined) | 14 | 6
S=c1n(CN2CCOCC2)nc(Cc2cccs2)n1C1CCCCC1 | 6 | 6
CSCCC(=O)N1CCN(S(=O)(=O)c2ccc(C)cc2)CC1 | 14 | 14
COC(=O)C1(S(=O)(=O)C2(C(=O)OC)CCCC2)CCCC1 | 18 | 10
O=C(/C=C/c1cccs1)OCc1nc2ccccc2s1 | 18 | 6
CN(C)C(CNC1CC2CC1C1CCCC21)c1ccco1 (centres undefined) | 26 | 10
Cc1cc(C)c(C)c(S(=O)(=O)Nc2ccccc2C(=O)NCC(=O)NCc2ccco2)c1C | 13 | 8
CCN(CC)S(=O)(=O)c1ccc(N2CCN(c3ccccc3F)CC2)nc1 | -4 | 2
COc1cccc(NCc2nnc(SCC(=O)c3ccc(Cl)s3)n2C2CCCCC2)c1 | 21 | 10
CCOc1ccc2c(c1)C(C)=CC(C)(C)N2C(=O)Cn1cnc2c1c(=O)n(C)c(=O)n2C | 12 | -4
O=C(CS)Nc1nc2c3ccccc3ncn2n1 | 70 | 14
O=C(NCC(=O)N1CCc2ccccc2C1)c1ccccc1Cl | 11 | 14
Cc1ccc(Cn2c(=S)[nH]c3ccccc32)cc1 | 97* | 3.0*
CCOC(=O)c1sc(-c2ccccc2)cc1NC(=O)COC(=O)COc1cc(C)on1 | 15 | 15
CCN1CCCC1CNCc1cc(=O)n2ccc(C)cc2n1 (centres undefined) | 16 | 8
Cc1cccc(Nc2ccccc2C(=O)OC(C)C(=O)N2CCN(C(=O)c3ccco3)CC2)c1C (centres undefined) | 16 | 14
CCC1(C)NC(=O)N(/N=C/C=C2\N(C)c3ccccc3C2(C)C)C1=O (centres undefined) | 24 | 10
COC(=O)c1cc(-c2ccccc2OC)nc2c1c(C)nn2CCC#N | 10 | 12
N#CCSc1ncnc2sccc12 | 24 | 12
CCCn1c(=O)n(CC#N)c(=O)c2c1nc(C(F)(F)F)n2CCOC | 6 | 3
COc1cc(C)ccc1OCC(=O)NC(C)C | 12 | 3
O=C(Nc1ccc(S(=O)(=O)N2CCCCC2)cc1)c1ccccn1 | 4 | 6
CCN(CC)S(=O)(=O)c1cccc(C(=O)N[C@H](C(=O)Nc2ccc3c(c2)OCCO3)C(C)C)c1 | 6 | 2

More results follow:
SMILES | BmaI1 | BmaI1 counterscreen
CC(C)(CNC(=O)Cc1ccsc1)N1CCOCC1 | 12 | 12
CC(C(=O)NCc1ccc2c(c1)OCO2)N1CCN(c2ccccc2F)CC1 (centres undefined) | 24 | 5
CCN(C(=O)CSc1ccc(NC(C)=O)cc1)C1CCS(=O)(=O)C1 (centres undefined) | 8 | 6
N#Cc1cccc(NC(=O)CN2CCc3ccccc32)c1 | 71 | 50
CCCCn1c(CCC(=O)OCC(=O)Nc2ccc(OC)cc2)nc2cc(S(=O)(=O)N3CCOCC3)ccc21 | 17 | 12
CC1CN(S(=O)(=O)c2cc(C(=O)N(C)Cc3cccs3)ccc2Cl)CC(C)O1 (centres undefined) | -1 | 2
CC(C)(C)NCC(O)c1ccc(O)c(CO)c1 (centres undefined) | -4 | 4
CCc1ccc2c(CC(=O)Nc3cccc(-c4nnc5n4CCCCC5)c3)coc2c1 | 26 | 25
CN(C(=O)CSc1nncn1-c1ccccc1)c1ccccc1 | 17 | 1
COCc1c(C(=O)NCC2COc3ccccc3O2)oc2ccccc12 (centres undefined) | 4 | 0
Cc1nc(SCc2ccccc2C#N)n(C2CCCC2)c1C | 12 | 10
Cc1csc(=O)n1CC(=O)OCC(=O)NC1(C#N)CCCCC1 | 15 | 10
N#Cc1ccccc1NC(=O)COc1ccc2ccc(=O)oc2c1 | 4 | 0
COc1ccc(C2CC(c3ccccc3)=NN2C(=O)Cn2c(NCCO)nc3ccccc32)cc1 (centres undefined) | 17 | 5
CCN(CC)P1(=O)OC(c2ccc(F)cc2)=Nc2c1c(C)nn2-c1ccccc1 (centres undefined) | 24 | 16
CCn1c(CCC(=O)Nc2nc3ccccc3[nH]2)nc2cc(S(=O)(=O)N(C)C)ccc21 | 6 | 10
COc1ccccc1CN(C)C(=O)CSc1nc2sccc2c(=O)n1C | 11 | -2
COc1ccccc1NC1CC(=O)N(c2cccc(Cl)c2)C1=O (centres undefined) | 18 | 10
O=C(Nc1nc(-c2cccs2)cs1)C1CC(=O)N(c2ccc3c(c2)OCCO3)C1 (centres undefined) | 10 | -2
COc1cccc(CC(=O)Nc2cccc(OC)c2)c1 | 8 | 2
Cc1ccc(NC(=O)CSC(C)C(=O)O)cc1 (centres undefined) | 6 | 0
CCOC(=O)c1c(C)[nH]c(C(=O)CN2C(=O)CCC2=O)c1C | 6 | 6
O=C(O)C1Cc2ccccc2O1 (centres undefined) | 6 | 3
CCC(c1nnc(SCC(=O)c2ccccc2)n1Cc1ccccc1)N(C)C (centres undefined) | 12 | 8
C=CCn1c(SCC(=O)Nc2sc(C(=O)OC)c(C)c2C(=O)OC)nc2ccccc21 | 5 | 8

More structures
SMILES | BmaI1 | BmaI1 counterscreen
C=CCN(CC(=O)N1CCN(c2ccccc2)CC1)S(=O)(=O)c1ccccc1C(F)(F)F | 16 | 9
Cc1nnc(NC(=O)C2CCN(S(=O)(=O)/C=C/c3ccccc3)CC2)o1 | 12 | -2
Cc1ccsc1C(=O)N1CCCSC1=Nc1ccccc1 | 7 | 8
COC(=O)CSc1nc2cc(Cl)ccc2c(=O)n1C1CCCC1 | 24 | 14
CN(C)CC(C)(C)CNc1nc(-c2cccnc2)nc2ccccc12 | 10 | -2
O=C(Cn1[nH]c(=O)c2ccccc2c1=O)N1CCCCCC1 | 2 | 2
Cn1ccnc1C(O)(CC(=O)O)C(F)(F)F (centres undefined) | 6 | -4
CSc1ncccc1C(=O)OC1CCCCC1=O (centres undefined) | 11 | 0
O=C(CSc1nnc(C2COc3ccccc3O2)o1)Nc1ccc(F)cc1Cl (centres undefined) | 8 | 4
OCc1nc2ccccc2n1CN1CCOCC1 | 7 | 8
Cn1cnnc1SCc1ccc(C(=O)NN=C2C3CC4CC(C3)CC2C4)cc1 | -34 | -4
O=C(Oc1ccc(Cl)cc1)c1ccc(=O)[nH]c1 | 10 | 13
CN1CCSC1=NCCSc1ccc(Cl)cc1 | 2 | -4
COC(=O)CC(N)c1ccccc1Cl (centres undefined) | 2 | 1
O=C(c1cc(Cl)c2c(c1)OCO2)N1CCCSc2ccccc21 | 28 | 6
Cc1cc(CNC(C)c2cc3ccccc3o2)c(C)n1-c1cccc(S(=O)(=O)N2CCOCC2)c1 (centres undefined) | 16 | 3
CCN(C(C)=O)c1cccc(-c2ccnc3c(C#N)cnn23)c1 | -1 | 4
COc1ccc(C)cc1NC(=O)c1ccc(S(C)(=O)=O)cc1 | 10 | 14
Cn1ccnc1-c1nc2ccccc2[nH]c1=O | -12 | -32
O=C(/C=C/c1ccco1)N1C(=Nc2ccccc2)SCc2ccccc21 | 4 | 6
CCN(C(=O)CSc1ccccn1)c1c(N)n(Cc2ccccc2)c(=O)[nH]c1=O | 4 | 4
COc1cc(CN(C)C(=O)C2CCN(C(C)=O)CC2)ccc1OCc1ccccc1 | 13 | -2
COc1cc(OC)c(OC)cc1/C=C/C(=O)N1CCN(C)CC1 | 14 | -4
C/C(=N\NC(=O)COc1ccccc1C)c1ccccc1O | 2 | -4
O=c1[nH]c(Nc2nc3ccccc3[nH]2)nc2cc(Cl)ccc12 | 10 | 26

Continued; the last 6 above are carried over.
SMILES | BmaI1 | BmaI1 counterscreen
O=C(/C=C/c1ccco1)N1C(=Nc2ccccc2)SCc2ccccc21 | 4 | 6
CCN(C(=O)CSc1ccccn1)c1c(N)n(Cc2ccccc2)c(=O)[nH]c1=O | 4 | 4
COc1cc(CN(C)C(=O)C2CCN(C(C)=O)CC2)ccc1OCc1ccccc1 | 13 | -2
COc1cc(OC)c(OC)cc1/C=C/C(=O)N1CCN(C)CC1 | 14 | -4
C/C(=N\NC(=O)COc1ccccc1C)c1ccccc1O | 2 | -4
O=c1[nH]c(Nc2nc3ccccc3[nH]2)nc2cc(Cl)ccc12 | 10 | 26
COc1ccc(CCN(C)C(=O)c2ccc3c(c2)C(=O)N(Cc2ccco2)C3=O)cc1OC | 8 | -2
O=C(OCc1nnc(-c2ccccc2)o1)c1cccnc1SCc1nnc(-c2ccccc2)o1 | 28 | 80
CCn1c(=O)[nH]c(=O)c2c(N)c(C(=O)c3ccccc3OC)sc21 | 10 | 4
CCOc1ccc(CN(C)CC(=O)c2c(N)n(Cc3ccccc3)c(=O)n(CC)c2=O)cc1OC | 12 | 11
O=C1CSC(N(CC(=O)N2CCc3ccccc32)Cc2ccccc2)=N1 | 0 | 2
O=C(CSc1nnc(-c2c[nH]c3ccccc23)o1)NCCC1=CCCCC1 | 8 | 3
Cc1ccccc1Nc1nc(N)nc(CN2CC(C)OC(C)C2)n1 (centres undefined) | 10 | 4
O=C(COC(=O)C1CC2CCCC(C1)C2=O)NCc1cccs1 (centres undefined) | 6 | 2
O=C(NNc1nc(CN2CCOCC2)nc2scc(-c3ccccc3)c12)c1cccc(S(=O)(=O)N2CCOCC2)c1 | 59 | 2
Cc1cc(=O)[nH]c2cc3c(cc12)C(C)(C)C(C)N3C (centres undefined) | -30 | -32
O=C(NCCC(=O)N1CCN(c2cccc(Cl)c2)CC1)NC12CC3CC(CC(C3)C1)C2 | 7 | 2
CC(C)C(NC(=O)c1ccc(F)cc1)C(=O)Nc1cccnc1 (centres undefined) | -4 | -5
O=C(CCN1c2ccccc2Sc2ccccc21)NC1=NCCS1 | 48 | 5
O=C(CSc1ncc(C(F)(F)F)cc1Cl)N1CCN(S(=O)(=O)c2ccccc2)CC1 | 8 | -4
Cn1cc[nH]c1=S | -4 | 27
O=S(=O)(Nc1nc2ccc(F)cc2s1)c1ccc(F)cc1F | 17 | 8
Cc1ccc2c(COC(=O)C3=COCCO3)cc(=O)oc2c1 | 8 | 4
NC(=O)Cc1ccc2sc(-c3ccccc3)nc2c1 | 16 | 6
CCc1ccc(C(=O)OCCN2C(=O)c3ccccc3C2=O)cc1 | 13 | 0
Cc1ccc(C(=O)Cn2nnc(-c3ccccc3)n2)c(C)c1 | 8 | 2
C=CCN1CC(C(N)=O)Oc2ccccc21 (centres undefined) | 41 | 6
O=c1c2ccccc2nc(CO)n1-c1ccc2c(c1)OCO2 | -6 | -3
CCOC(=O)C1=C(C)NC(C)=C(C(=O)OCC)C1c1ccccc1/C=C/C(=O)OC(C)(C)C | 11 | 14

Two records picked at random from those above:
SMILES | BmaI1 | BmaI1 counterscreen
C=CCN1CC(C(N)=O)Oc2ccccc21 (centres undefined) | 41 | 6
CCOc1ccc(CN(C)CC(=O)c2c(N)n(Cc3ccccc3)c(=O)n(CC)c2=O)cc1OC | 12 | 11

Part of the list above, field by field.
Cc1ccccc1Nc1nc(N)nc(CN2CC(C)OC(C)C2)n1 (centres undefined)
  BmaI1: 10	BmaI1 counterscreen: 4
O=C(COC(=O)C1CC2CCCC(C1)C2=O)NCc1cccs1 (centres undefined)
  BmaI1: 6	BmaI1 counterscreen: 2
O=C(NNc1nc(CN2CCOCC2)nc2scc(-c3ccccc3)c12)c1cccc(S(=O)(=O)N2CCOCC2)c1
  BmaI1: 59	BmaI1 counterscreen: 2
Cc1cc(=O)[nH]c2cc3c(cc12)C(C)(C)C(C)N3C (centres undefined)
  BmaI1: -30	BmaI1 counterscreen: -32

This is a subset, so the mix of outcomes need not match the whole.
